Assay outcomes: PubChem, National Center for Advancing Translational Sciences (NCATS)
HSD17B inh = inhibitors of human HSD17B10 dehydrogenase | Q99714 | recombinant HSD17B10, NADH fluorescence kinetic; many of its hits are not listed in these tables | Potency, µM (doses to about 57.1 µM), inactives show top-dose activity change, negative = inhibition, usual class: inhibitors | 75,000 tested, 7.6% active; active means well fitted inhibition curve with a large enough effect; inconclusive means small, poorly fitted or top-dose-only effect; inactive means no such curve, though single readings can be large or run the other way;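 further: the protocol describes HADH2 (HSD17B10) and not the HSD17B4 of the title; nearly all actives have a fitted effect of over 70% in size; most hits overshoot -100% by far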
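Activity followed as NADH fluorescence increase (ex 360, em 450 nm) every 30 seconds for 4 min, using final 90 uM beta-hydroxybutyryl CoA and 1 mM NAD+. Recombinant His-tagged enzyme, 20 nM, pH 9.0 Tris buffer, 15 min compound preincubation.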
Numbers without * were called inactive; ? = inconclusive; [ ] = dose if it differs, or a comment. On the % scale 0 is the no-effect control and ±100 the full control effect; potency means the concentration at half of the fitted maximal effect.

SMILES	HSD17B inh
COc1ccc(OC)c(NC(=O)C2COc3ccccc3O2)c1 (centres undefined)	-1.4%
Cc1c(NC(=O)C(C)OC(=O)c2cc3c4ccccc4n(C)c3s2)c(=O)n(-c2ccccc2)n1C (centres undefined)	3.98µM*
Cc1cc(C)c(S(=O)(=O)N(C)CC(=O)NC2CCCC2)c(C)c1	-2.9%
CC1(C)NC(=O)N(CCCCOc2cccc(C(F)(F)F)c2)C1=O	2.4%
Cc1cc(S(=O)(=O)Nc2c(C(=O)O)[nH]c3ccccc23)ccc1F	2.1%
Cc1cc(C2C(=O)C(C(=O)c3ccc(Cl)cc3)C(=O)CC2(C)C)on1 (centres undefined)	?
C[C@@H]1C=CCC(=O)OC[C@H](C)C(=O)OC[C@H]2O[C@H]1C=C[C@@H]2O	7.7%[11.4 µM]
N#CC(C(=O)C1CCCCC1)c1nc2ccccc2[nH]1 (centres undefined)	-6.8%
CC(C)C(=O)NC(C)C(c1cccs1)N1CCN(C)CC1 (centres undefined)	-0.6%
CCC(=O)Nc1nnc(Sc2ccc(N(C)C)cc2)s1	2.5%
COc1ccc(OC)c(C2CC(=O)c3c([nH]c(C(=O)OCC4CCCO4)c3C)C2)c1 (centres undefined)	5.3%
CCCN1CN(Cc2ccccc2)CC2=C1CC(C)(C)CC2=O	-1.7%
CCOC(=O)C1=C(C)NC(=O)NC1c1ccc(NC(C)=O)cc1 (centres undefined)	0.8%
Clc1ccccc1CSc1nnc(-c2cccnc2)n1Cc1ccco1	-1.9%
O=C(CCSc1nnc2scc(-c3ccccc3)n12)Nc1nc(-c2ccccc2)ns1	0.2%
Cc1oc2c(CN3CCCC3)c(O)ccc2c(=O)c1Oc1ccccc1Br	31.6µM*
O=C(Nc1ccon1)C1CCN(S(=O)(=O)c2cccs2)CC1	-7.0%
COc1ccc(C2CC(=O)C(C=NCCN3CCN(C(C)=O)CC3)=C(O)C2)cc1OC (centres undefined)	7.8%
CCCCn1c(C)nc2c(=O)n(C)c(=O)[nH]c21	-24.1%
CC(C)NC(=O)N1CCCC2(CCN(C(=O)c3ccco3)CC2)C1	-4.2%
O=C(COC(=O)CCc1c[nH]c(=O)[nH]1)Nc1ccccc1Cl	-3.0%
CC(=O)c1cc2c(cc1NC(=O)c1cc(C)nn1-c1ccccc1)OCO2	31.6µM*
O=c1cc(CSc2ccc(S(=O)(=O)N3CCCCC3)cn2)nc2sccn12	2.7%
COc1ccc(Cc2noc(-c3ccc(C)cc3)n2)cc1	-0.1%
COC1(OC)N=C(N)C2(C#N)C(c3ccc(F)cc3)C12C#N (centres undefined)	12.4%

Some of the entries above, set out differently.
molecule: COc1ccc(Cc2noc(-c3ccc(C)cc3)n2)cc1
  HSD17B inh: -0.1%

molecule: CCCN1CN(Cc2ccccc2)CC2=C1CC(C)(C)CC2=O
  HSD17B inh: -1.7%

Later entries:
SMILES	HSD17B inh
COc1ccc(C(=O)Nc2ccccc2C(=O)NCCCn2ccnc2)cc1	-6.6%
Cc1cc(NC(=O)CSc2nnc3c(C)cc4c(C)ccc(C)c4n23)no1	-3.4%
COc1ccc(NC(=O)c2ccc(Cl)c(S(=O)(=O)N3CCc4ccccc4C3)c2)cn1	?
COC(=O)Cc1cc(=O)[nH]c(Nc2nc3ccccc3o2)n1	-6.3%
COCCNC(=O)CN1CCN(Cc2cccc(Cl)c2)C1=O	-7.4%
CCc1ccc(OCC(=O)NCc2ccco2)c(Br)c1	-11.5%
COc1ccc2c(=O)c3c(=O)n(Cc4ccco4)c(-c4cc(OC)c(OC)c(OC)c4)nc3oc2c1	10.2%
O=C(O)c1cccc(S(=O)(=O)Nc2ccc3oc(=O)sc3c2)c1	25.1µM*
Oc1ccc(Cl)cc1CNc1ccc(Br)cn1	-17.7%
CO[C@@H]1COC(=O)C/C=C\[C@H](C)[C@H](OC)COC(=O)[C@H]2CCCN2C(=O)C/C=C\[C@H]1C	-2.8%[11.4 µM]
C=CCn1c(SC(C)C(=O)NC2(C#N)CCCCC2)nnc1-c1ccc(OC)cc1 (centres undefined)	0.7%
Cc1nc2c(c(=O)n1CCC1=CCCCC1)c1nc3ccccc3nc1n2/N=C/c1ccco1	?
CCc1nc(N)c(C#N)c(-c2ccc(O)c(OC)c2)c1C	-22.0%
CC(=O)NCCc1ccc(O)c(O)c1	7.94µM*
O=S1(=O)CCN(Cc2ccccn2)CC1	7.9%[11.4 µM]
CC1(C)CC(=O)N(CC(=O)NCc2ccc(F)cc2)c2ccccc2S1(=O)=O	-1.8%
O=c1[nH]c(CN2CCN(CCO)CC2)nc2ccccc12	8.2%
CC(=O)Cc1nsc(NC(=O)c2cc(-c3cccc(C(F)(F)F)c3)oc2C)n1	-10.4%
CCOC(=O)C1CCN(c2nnc(N3CCCC3=O)s2)CC1	11.0%
COCCNS(=O)(=O)c1cc(-c2nn(C)c(=O)c3ccccc23)ccc1C	-2.6%
Nc1ccc2[nH]cc(CCC(=O)O)c2c1	0.1%[11.4 µM]
COc1cc(OC)cc(C(=O)NCCNC(=O)c2ccccc2)c1	-9.4%
CC(C)(C)CC(=O)N1CCC(c2nc3c(nnn3Cc3c(F)cccc3Cl)c(=O)[nH]2)CC1	3.3%
Cn1c(=O)c2c(nc(OC/C=C/c3ccccc3)n2C)n(C)c1=O	-5.7%
O=S1(=O)NC2CCCCCN2c2ccc(F)cc21 (centres undefined)	31.6µM*

Of the compounds above, 2 contain a CF3 group.
SMILES	HSD17B inh
CC1(C)NC(=O)N(CCCCOc2cccc(C(F)(F)F)c2)C1=O	2.4%
CC(=O)Cc1nsc(NC(=O)c2cc(-c3cccc(C(F)(F)F)c3)oc2C)n1	-10.4%

Next section:
SMILES	HSD17B inh
COc1ccc(C2OC(=O)CC2C(=O)N2CCN(c3cc(Cl)ccc3C)CC2)cc1OC (centres undefined)	5.0%
O=C(c1cc(C(F)(F)F)cc(C(F)(F)F)c1)N1CCC2(CCN(Cc3ccncc3)CC2)CC1	-1.6%
CCN1C(=O)[C@H]2[C@H]3[C@H](O)[C@H](O)C/C(=N/O[C@@H]4O[C@H](COC(C)=O)[C@@H](OC(C)=O)[C@H](OC(C)=O)[C@H]4OC(C)=O)[C@@H]3CC[C@@H]2C1=O	-0.7%[11.4 µM]
CC(NS(=O)(=O)c1ccc(F)cc1)C(c1cccs1)N1CCN(C)CC1 (centres undefined)	10.8%
COc1ccccc1Cn1c(=S)[nH]c2cc(C(=O)NCCN3CCOCC3)ccc2c1=O	-0.8%
O=C(CSc1ccc2nnc(-c3ccc(F)cc3)n2n1)NCc1ccco1	?
O=C(Cn1ccc2ccccc2c1=O)NCCC(=O)Nc1cccnc1	-11.6%
CCN1C(=Nc2ccc(Cl)cc2)SC/C1=C\C(=O)OC	1.5%
CC1CCCN(c2ccc(C(=O)NCC3CCCO3)cn2)C1 (centres undefined)	1.3%
CCc1c(C)sc(NC(=O)c2cc(C)no2)c1C#N	?
O=C(Nc1ccc2c(c1)OCO2)C1(S(=O)(=O)c2ccc(Cl)cc2)CC1	-9.5%
O=C(c1ccc(Cn2c(=O)[nH]c3ccccc3c2=O)cc1)N1CCN(c2ccccc2)CC1	?
c1ccc(C2NCCn3cccc32)cc1 (centres undefined)	-0.4%
C[N+](C)(C)C/C=C1/COCO1	7.9%
CNC(=O)[C@H]1O[C@H](n2cnc3c(NCc4cccc(I)c4)ncnc32)[C@@H](O)[C@@H]1O	4.3%
CCCc1nnc(NC(=O)c2ccncc2)s1	0.0%
N#Cc1c(N)oc(-c2ccc3c(c2)OCO3)c1-c1ccc2c(c1)OCO2	31.6µM*
CCOC(=O)c1oc2nc(C(C)C)c3c(c2c1N)CC(C)(C)OC3	15.8µM*
CSc1nc2cc(F)c(F)cc2n1C	4.7%
Cc1nc(NC2CCCCC2)c2nc(-c3ccccc3)n(CCCN3CCOCC3)c2n1	25.1µM*
COc1ccccc1NC(=O)NC(N)=O	6.7%
O=C(CC1COc2ccccc2O1)NC1CCCCC1 (centres undefined)	6.5%
CC(C)C(=O)Nc1ccc(NC(=O)c2cc3ccccc3o2)cc1	?
CC(=O)Nc1ccc(S(=O)(=O)N2CCSC2c2ccccc2)cc1 (centres undefined)	-4.9%
COC1OC2COC(c3ccccc3)OC2C(O)C1O (centres undefined)	5.0%

Next section.
SMILES	HSD17B inh
CCOC(=O)c1ccc(Nc2cc(C)nc3nc(C)nn23)cc1	0.5%
COC(=O)c1ccc(CN2[C@H](C(=O)OC)C[C@@]3(O)[C@H](O)[C@H](O)[C@H](O)C[C@@H]23)cc1	22.9%
COCCN1Cc2cccc(C(=O)Nc3cccnc3)c2C1=O	5.9%
Cc1cc(-c2ccccc2C(=O)O)on1	4.0%
CCC1Oc2ccc(C)cc2N(Cc2cccc(C)c2)C1=O (centres undefined)	-4.1%
Cc1nn(-c2ccccc2)c2c1C(c1c(C)[nH]c(C#N)c1C)C(C#N)=C(N)O2 (centres undefined)	-11.6%
CC1CCCCC1NC(=O)Cn1nnc(-c2ccc(Cl)cc2)n1 (centres undefined)	5.7%
Cc1ccc(-c2nnc3ccc(SCC(=O)N4CCCCC4)nn23)cc1	-5.0%
N#CCC(=O)N1CCCCCC1	4.3%
COc1ccc(CCC(=O)Nc2ccc3c(c2)OCCO3)cc1	-0.5%
CCn1c(Cn2nnc(-c3ccccc3)n2)nnc1SCC(=O)N1CCOCC1	7.4%
Cc1ccc(-n2ncc3c(=O)[nH]c(SCC(=O)N4CCN(c5ccccc5)CC4)nc32)cc1	5.0%
CCCn1c(C)nc2c(Nc3ccccc3)nc(C)nc21	-2.7%
Cc1ccc(NC(=O)Nc2ccc3c(c2)N(C)C(=O)CS3)nc1	-15.2%
C=CCn1c(CSc2nc3ccccc3s2)nnc1SCC(=O)NCc1ccco1	-8.4%
O=C(O)c1ccc2c3c(ncnc13)-c1ccccc1C2=O	-11.2%
CCOC(=O)C1CCN(C(=O)c2cccnc2)CC1	1.8%
Cc1nc2ccccc2c(=O)n1N	3.9%
C=CCn1c(SCC(=O)O)nnc1-c1cccc(Cl)c1	-1.7%
Cc1cc(NC(=O)Cn2cnc3c(cnn3C(C)(C)C)c2=O)no1	0.0%
COC(=O)c1cc(NC2c3ccccc3C(=O)N2c2cccnc2)cc(C(=O)OC)c1 (centres undefined)	-21.0%
COc1cccc(NC(=O)C2CCN(S(C)(=O)=O)CC2)c1	8.0%
Cn1c(COc2ccccc2)nnc1SCC(=O)Nc1ccc2c(c1)OCO2	-4.3%
Cc1ccc2nc3c(cc2c1)CN(Cc1ccco1)C(=NCC1CCCO1)S3 (centres undefined)	-16.8%
COc1ccc(CNCCNC(=O)c2nonc2N)cc1OC	-7.6%

Entries shown so far containing a thiophene ring, fused or not, in the order listed:
SMILES	HSD17B inh
Cc1c(NC(=O)C(C)OC(=O)c2cc3c4ccccc4n(C)c3s2)c(=O)n(-c2ccccc2)n1C (centres undefined)	3.98µM*
CC(C)C(=O)NC(C)C(c1cccs1)N1CCN(C)CC1 (centres undefined)	-0.6%
O=C(Nc1ccon1)C1CCN(S(=O)(=O)c2cccs2)CC1	-7.0%
CC(NS(=O)(=O)c1ccc(F)cc1)C(c1cccs1)N1CCN(C)CC1 (centres undefined)	10.8%
CCc1c(C)sc(NC(=O)c2cc(C)no2)c1C#N	?

(listing goes on)
SMILES	HSD17B inh
CC(=O)NCCNc1ncnc2ccc(-c3ccccc3C#N)cc12	25.1µM*
O=C(NCCC1=CCCCC1)NC1CCCCC1	2.1%
O=C(CCc1ccccc1)Nc1ccc(NC(=O)c2ccco2)nc1	?
Cc1nnc(SCC(=O)N2CCOCC2)n1C	9.4%
CC(Sc1nc(N)cc(=O)[nH]1)C(=O)NC1CCCCC1 (centres undefined)	5.4%
Cc1cc(Br)ccc1NC(=O)CCN1C(=O)c2ccncc2C1=O	0.0%
Cc1cccc(NC(=O)c2ccccc2Br)n1	-5.9%
OCCN(Cc1ccccc1)CC1CC2C=CC1C2 (centres undefined)	-3.5%
O=S(=O)(Cc1ccccc1Cl)Nc1ccccn1	?
COc1ccc(NC(=O)C2CCCN(S(=O)(=O)c3c(C)n[nH]c3C)C2)cc1 (centres undefined)	0.7%
COCCCn1c(SCc2cc(=O)[nH]c3ccccc23)nnc1-c1ccco1	-1.9%
O=c1cnc2cnc(OCc3ccccc3)nc2n1CCc1ccccc1	-8.6%
O=C(Oc1ccnc2cc(Cl)ccc12)N1CCCCCC1	2.9%
CC1CCN(CC(=O)N2c3ccccc3CCc3ccccc32)CC1	3.8%
Cn1c(=O)oc2cc(S(=O)(=O)NCc3ccccn3)ccc21	3.7%
O=C(C1CCN(S(=O)(=O)c2cnc[nH]2)CC1)N1CCN(c2ncccn2)CC1	?
CCn1c(N2CCN(CC(=O)Nc3cccc(C)c3C)CC2)nc2ccccc21	-1.3%
O=c1c(/C=N/O)coc2ccc3ccccc3c12	-28.7%
COc1ccc(C(=O)Nc2ccc(S(=O)(=O)Nc3nccnc3OC)cc2)cc1OC	-7.0%
Cc1ccc(-n2ncc(C(=O)NCc3ccc4c(c3)OCO4)c2NC(=O)c2ccco2)cc1C	3.7%
O=C(NCc1cccnc1)C1c2ccccc2C(=O)N1Cc1ccco1 (centres undefined)	1.1%
C=CCOn1c(=O)c(=O)n(OCc2ccccc2)c2ccccc21	-9.5%
CO/N=C(\C(=O)N[C@@H]1C(=O)N2C(C(=O)O)=C(COC(N)=O)CS[C@H]12)c1ccco1	-25.6%
O=C1C=C(c2ccccc2)C(O)(c2ccccc2)C1 (centres undefined)	2.6%
COc1ccc(-c2noc(CCC(=O)Nc3ccc(C)c(C)c3)n2)cc1	-2.3%
Cc1ccc2oc(=O)c3cnn(CC(=O)NCCCOC(C)C)c3c2c1	3.5%
COc1ccc(C(c2nnnn2C(C)(C)C)N2CCN(C)CC2)cc1OC (centres undefined)	2.5%
O=C(NC1CCCCCC1)c1nnc(Cc2ccc(Cl)cc2)o1	-6.3%
CCc1c(C)nc(SCCOc2ccc(OC(C)C)cc2)[nH]c1=O	0.2%
COc1cccc(-c2nccc(NCc3cccnc3)n2)c1	20µM*

The list is partial; rates above refer to the full screens.
